CtBP-E1A inh: inhibitors of CtBP/E1A interaction | AlphaScreen GST-E1A/His-CtBP binding, 1536-well; stronger effect = lower value; control for the full effect not named in the record | activity change, % (no concentration beside the values) | hit rate 0.49% among 340,000 | AID 651724; in the data active means activity change below about -65%; inconclusive means about -30% to -65%; inactive means above about -30%; also: % is scaled to controls: 0 for no effect and ±100 for the full control effect; compound concentration not given in the record
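Protein mix (5X: 125 nM each GST-E1A, His-CtBP) was incubated with pinned compound 2 h at 37 deg C in dark, in 50 mM Tris pH 8.0 buffer with 300 mM NaCl. Glutathione donor and nickel acceptor beads followed; AlphaScreen signal read after 1 h.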
TRPML1 blocker: blocks the human TRPML1 channel. Q9GZU1. TRPML1-inducible cells, Ca2+ dye fluorescence, FDSS; stronger effect = lower value; inhibition of EC80 agonist-evoked calcium signal. activity change, negative = inhibition, % (no concentration beside the values). hit rate 0.02% among 390,000; in the data active means activity change below about -50%; inconclusive means about -30% to -50%; inactive means above about -30%;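 also: stimulus is agonist 54-4 at its EC80 concentration; % is scaled to controls: 0 for no effect and ±100 for the full control effect; compound concentration not given in the record; the text of the record puts the active cut at -80%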
Target sequence (Q9GZU1 whole entry, looked up): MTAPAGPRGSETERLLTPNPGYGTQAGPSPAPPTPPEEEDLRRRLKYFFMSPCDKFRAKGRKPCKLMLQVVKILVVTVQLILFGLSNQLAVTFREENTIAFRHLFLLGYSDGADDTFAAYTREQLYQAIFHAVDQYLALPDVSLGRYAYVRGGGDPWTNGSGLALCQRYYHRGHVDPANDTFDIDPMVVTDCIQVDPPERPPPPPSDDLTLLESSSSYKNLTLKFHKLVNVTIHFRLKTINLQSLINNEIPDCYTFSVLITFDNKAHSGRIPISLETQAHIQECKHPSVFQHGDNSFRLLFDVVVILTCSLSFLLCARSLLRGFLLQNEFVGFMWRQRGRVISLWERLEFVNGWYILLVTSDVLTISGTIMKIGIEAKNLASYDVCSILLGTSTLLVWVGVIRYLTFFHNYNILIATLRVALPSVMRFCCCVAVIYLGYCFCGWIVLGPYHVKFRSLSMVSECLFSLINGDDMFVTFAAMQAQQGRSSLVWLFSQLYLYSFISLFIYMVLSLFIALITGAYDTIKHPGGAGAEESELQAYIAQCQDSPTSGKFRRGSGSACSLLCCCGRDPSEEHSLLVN
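TRPML1-DL cells, Tet-induced overnight (~16 h, 37 °C) at 1,500 cells/well, were loaded with Ca8 no-wash dye plus quencher for 45-90 min at room temperature. Compounds were pinned during FDSS kinetic reading; agonist 54-4 at EC80 (4 uM final) then added.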
D2 ag: activates the human D2 dopamine receptor. DiscoveRx PathHunter D2 beta-arrestin, luminescence, 90 min; 100% = 57 uM dopamine signal. activation, % (test concentration not listed). hit rate 0.084% among 360,000. AID 624465; in the data active = activation above about 40%; inconclusive = about 15% to 40%; inactive = below about 15%; also: compound concentration not given in the record; the text of the record calls up to 30% inactive
Target sequence (P14416 whole entry, looked up): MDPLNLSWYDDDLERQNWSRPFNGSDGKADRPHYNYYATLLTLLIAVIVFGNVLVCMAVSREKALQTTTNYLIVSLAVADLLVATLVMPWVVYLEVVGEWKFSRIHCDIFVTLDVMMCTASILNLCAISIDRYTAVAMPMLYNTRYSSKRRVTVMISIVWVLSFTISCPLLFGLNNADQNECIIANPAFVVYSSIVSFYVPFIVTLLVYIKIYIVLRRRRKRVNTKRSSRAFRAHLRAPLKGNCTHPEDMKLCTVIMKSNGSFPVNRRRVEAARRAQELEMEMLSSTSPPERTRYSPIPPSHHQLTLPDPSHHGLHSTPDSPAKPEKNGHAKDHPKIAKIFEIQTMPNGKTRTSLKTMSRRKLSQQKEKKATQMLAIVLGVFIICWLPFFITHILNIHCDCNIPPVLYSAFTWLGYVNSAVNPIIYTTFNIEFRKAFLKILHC
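DiscoveRx PathHunter D2 beta-arrestin cells (2,100/well) attached overnight, then compound-stimulated 90 min at 37 C in HBSS/10 mM HEPES/0.1% Tween-20 buffer; beta-galactosidase complementation read by luminescence after 1 h at ambient temperature. Dopamine 57 uM final (EC100) as control.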
PINK1 expr mod: modulators of PINK1 expression. PINK1 immunofluorescence, high-content cytometry, 24 h. Potency, µM (top dose mostly 76.6 µM), inactives show top-dose activation (PINK1 increase), hits mostly activators. hit rate 0.2% among 410,000. AID 624263; active = well fitted activation curve with a large enough effect; inconclusive = small, poorly fitted or top-dose-only effect; inactive = flat fitted curve, though single readings scatter; cell line not stated here;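 also: potency is read from the fitted curve at half-maximal effect; % of control where 0% means no effect; nearly all actives have a fitted effect of over 65% in size; a mitochondrial uncoupler was the plate control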
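Fluorescence from anti-PINK1 antibody, together with nuclear and cell stains, was scanned on a laser-scanning cytometer. Before staining, stable-line cells were incubated 24 hours with compounds at 5 concentrations; primary antibody 12 h at 10 degrees C.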
Six1-Eya2 blk: inhibitors of human Six1/Eya2 interaction; Q15475+O00167; activity change, % (concentration not given with the values); hit rate 0.56% among 360,000; AlphaScreen GST-Six1/His-Eya2 binding, biochemical; stronger effect = lower value; control for the full effect not named in the record; AID 651725; in the data active = activity change below about -65%; inconclusive = about -30% to -65%; inactive = above about -30%; also: % is scaled to controls: 0 for no effect and ±100 for the full control effect
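Compounds are tested against tagged Six1 and Eya2 proteins bridged by glutathione donor and nickel acceptor beads; after a one-hour incubation at 37 °C without light, AlphaScreen emission is recorded.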
TRPML1 ag: human mucolipin-1 channel agonism; Q9GZU1; TRPML1-expressing cells, Ca2+ dye fluorescence, FDSS; host cell line not named in the record; reference of the full effect not given here; AID 624414; hit rate 0.12% among 410,000; activation, % (test concentration not listed); in the data active = activation above about 50%; inconclusive = about 30% to 50%; inactive = below about 30%; also: 0% is about no effect; the text of the record puts the active cut at 80%
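In this qHTS format, compounds were pin-transferred onto Ca8-dye-loaded TRPML1-DL cells induced with Tet overnight, and intracellular Ca2+ fluorescence was recorded kinetically for 110 s after a 10 s baseline. A subsequent 4uM final 54-4 (EC80) addition followed by a second 110 s read served as the antagonist phase.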
Active calls of the source: *; ? = inconclusive; · = no result given; & = joins results of further samples; [ ] = dose if it differs, or a comment.

SMILES	CtBP-E1A inh	TRPML1 blocker	D2 ag	PINK1 expr mod	Six1-Eya2 blk	TRPML1 ag
Cc1ccc(-n2ncc(C(=O)Nc3cc(Cl)ccc3C)c2C2CCNCC2)cc1C	-1	-6	-3.2	-0.3%	-7	1.3
CCc1ccc(-c2cc(C)no2)cc1S(=O)(=O)Nc1ccc(C)cn1	1	9&-10	-4.9	1.0%&-1.4%	4	-0.4&-0.2
CN(C)c1ccc(S(=O)(=O)NCC(=O)OCC(=O)Nc2cccc(Cl)c2)cc1[N+](=O)[O-]	1	14	-4.0	3.5%	-4	0.6
O=C(Cn1cc(C(=O)C2CC2)c2ccccc21)NCC1CCCO1 (stereo not drawn)	7	12	-2.1	-1.6%	-1	-0.6
COc1cc(CNCCc2ccc(F)cc2)ccc1OCc1ccc(Cl)nc1	-2	16	-7.0	4.5%	-2	0.1
Cc1cc(-c2csc(N)n2)c(C)n1Cc1ccccc1	-5	12	-8.3	1.0%	-7	-0.9
Fc1ccc(-n2nnnc2-c2ccccc2Cl)cc1	7	30	0.2	0.3%	-2	0.5
COC(=O)c1ccc(NC(c2ccc(Cl)cc2)P(=O)(OC)OC)cc1 (stereo not drawn)	17	11	-3.5	-1.8%	3	0.8
O=c1[nH]c(/C=C/c2ccccc2Cl)nc2ccccc12	-3	-1	-3.5	6.8%	-4	1.7
COc1ccc(OCC(=O)NNC(=S)NC(=O)C2CC2)cc1	0	-2	-4.1	3.5%	11	0.3
CCOC(=O)C1CN(Cc2ccccc2)C(=O)C1=O (stereo not drawn)	-2	0	-2.0	1.2%	-8	-0.7
O=C(Cc1cccc2ccccc12)Nc1ccc(Br)cc1C(=O)O	·	-7	3.1	-0.5%	-26	-0.3
CCN(CCCNC(=O)CN1N=C(c2ccc(OC)cc2)CCC1=O)c1cccc(C)c1	·	26	·	-0.6%	·	2.9
COc1ccc(OC)c(NC2=C(Cl)C(=O)N(Cc3ccccc3)C2=O)c1	-26	8	-3.4	-1.4%	?	1.3
Cc1ccn2c(Nc3ccc(F)cc3)c(-c3ccc(C)o3)nc2c1	·	-3	·	1.4%	·	0.2
O=C1NC2(CCCCC2)C(=O)N1CCS(=O)(=O)Oc1ccc(Br)cc1	0	-14	2.4	4.1%	2	0.6
O=C(COC(=O)c1cncc(Br)c1)NCC12CC3CC(CC(C3)C1)C2	-9	11	-4.9	0.5%	26	0.3
CN(C)CCOC(=O)NC12CC3CC(CC(C3)C1)C2	6	-4	-2.2	0.1%	-1	0.5
O=C(CCC1N=C2c3ccccc3N=C(SCC(=O)Nc3ccccc3F)N2C1=O)NCc1ccccc1 (stereo not drawn)	·	-11	·	-0.4%	·	1.7
O=C(NC1CCCc2ccccc21)c1ccc(CNc2c(N3CCOCC3)c(=O)c2=O)cc1 (stereo not drawn)	-18	-1	3.6	2.9%	-23	-0.9
Cc1ccc(S(=O)(=O)NNC(=O)c2cnn(-c3ccc(Cl)cc3)c2C(F)(F)F)cc1	0	5	-4.5	-0.1%	-5	0.8
O=C(NC(=S)Nc1cccc2ncccc12)c1ccccc1	-8	-11	-1.4	0.7%	-6	0.8
COc1ccc(C(=O)CN2CCN(c3ccc(F)cc3)CC2)cc1OC	-4	7	-6.9	-3.0%	-4	-0.5
O=C(Nc1nnc(-c2ccco2)o1)c1ccc(S(=O)(=O)N2CCOCC2)cc1	·	-6	-6.0	-0.6%	-4	-0.3
Cc1ccnc2c1NC(=O)c1cccnc1N2C1CC1	0	7	-2.0	1.0%	-15	-0.5
COc1cc(/C=N/NC(=O)COc2cccc(F)c2)ccc1OS(=O)(=O)c1ccc(C)cc1	3	25	2.3	0.1%	-6	2.0
O=C(CO/N=C/c1ccc(OC(F)F)cc1)NC1CCCCCC1	-2	7	-4.1	1.6%	-9	0.2
O=C(Nc1ccc(Cl)cn1)c1cccc2ccccc12	·	·	8.6	9.0%	6	·
COC(=O)[C@]1(C)N[C@H](c2ccc(-c3ccc(Cl)c(Cl)c3)cc2)[C@@H]2C(=O)N(C)C(=O)[C@@H]21	1	0	-0.5	-0.9%	0	-0.7
COc1ccc(CNC(=O)C(=O)NCC2OCCN2S(=O)(=O)c2ccc(C)cc2)cc1 (stereo not drawn)	3	-12	-3.2	6.9%	33	1.6
COc1ccccc1CNc1nc(-c2ccco2)nn1S(=O)(=O)c1ccc2ccccc2c1	·	-4	·	-0.4%	·	3.1
CCOC(=O)c1c(C)[nH]c(C)c1S(=O)(=O)N1CCC(C(=O)NCc2ccc(N(C)C)cc2)CC1	·	9	·	-0.1%	·	-0.9
O=C1NCC(COc2cccc3ccccc23)O1 (stereo not drawn)	0	4	-2.5	-1.0%	-4	0.9
COC(=O)c1cc(Br)c(=O)n(CCC2=CCCCC2)c1	6	-1	-0.8	7.9%	4	0.7
CCOC(=O)CNC(=O)CSc1nnc(CCc2nc3ccccc3[nH]2)n1C	·	9	-4.1	0.5%	8	-0.7
CSc1ncccc1C(=O)NC1CCN(Cc2ccccc2)CC1	5	16	3.5	-0.6%	-2	0.3
O=C(c1c2c(nc3ccccc13)C(=O)N(C1CCCCC1)C2)N1CCN(c2ccc(F)cc2)CC1	·	-11	·	0.0%	·	-0.5
CC(C)C(NC(=O)CCNC(=O)c1ccc(C(C)(C)C)cc1)c1nc2ccccc2[nH]1 (stereo not drawn)	1	6	-3.5	4.6%	17	0.1
O=C(Cc1cccs1)Nc1ccc(S(=O)(=O)N2CCCC2)cc1	9	-14	3.5	-1.7%	-13	0.2
COc1ccccc1Cn1c(CNS(=O)(=O)c2cccc([N+](=O)[O-])c2)nc2cccnc21	·	-15	·	2.8%	·	2.2
Cc1cccc(NC(=S)NNC(=S)NC2CCCCC2)c1C	-11	-7	4.2	-1.1%	-6	-0.2
COc1ccc(N2C(=O)C(Cl)=C(Nc3ccccc3O)C2=O)cc1	-3	-17	0.9	-0.1%	10	-0.9
CC1=C/C(=N\NC(=S)NCc2ccccc2)CC1	-5	-11	-5.9	0.4%	-12	-0.5
O=C(c1sc2cc(Cl)ccc2c1Cl)N1CCN(CCc2ccccn2)CC1	-8	-1	3.7	-0.7%	-5	-0.9
Clc1cccc(-c2ccc(/C=N/n3cnnc3)o2)c1Cl	1	0	-1.5	-2.4%	-2	-0.4
CCOC(=O)CCCNC(=O)CN1C(=O)NC2(CCCCCC2)C1=O	2	6	2.6	5.3%[38.3 µM]	5	0.9
FC(F)(F)c1ccc(Cl)c(NC(=S)NC2CC2)c1	-4	-3	-4.4	4.7%	2	0.1
CCCS(=O)(=O)NC(=O)C1(C)CCN(C(=O)c2ccc(OC)c(F)c2)C1 (stereo not drawn)	9	·	-5.9	0.5%	3	-0.3
COc1ccc(Cl)cc1NC(=O)c1cc(-c2ccccc2O)n[nH]1	8	-7	0.7	8.4%	-2	-1.3
COc1ccccc1C1N=C(c2ccccc2C)NO1 (stereo not drawn)	13	14	0.5	0.8%	-2	0.1
CN(C)c1ccc(P(=O)(OCc2ccccc2)C(O)c2ccncc2)cc1 (stereo not drawn)	4	33	-1.2	0.5%	12	0.6
COc1cccc(C(=O)Nc2nc(C)cs2)c1	-2	-6	0.3	2.7%	1	-0.6
Cc1nn(C(=O)c2ccc([N+](=O)[O-])cc2)c(C)c1Br	4	-2	-1.8	-0.2%	4	3.9
COc1c(C)cc(S(=O)(=O)NCc2ccccn2)c(C)c1C	8	-2	3.8	0.5%	0	0.4
CC(C(=O)N1CCCC1)N(c1ccc(Cl)cc1)S(C)(=O)=O (stereo not drawn)	28	-20	-0.9	1.9%	-5	0.1
NC(=O)C12CCCC(Br)(CCC1)C2	-3	6	-5.4	3.0%	6	-0.3
COc1ccccc1C1=NOC(COC(=O)c2ccc([N+](=O)[O-])cc2)C1 (stereo not drawn)	2	19	-1.3	-0.4%	-9	2.4
N#Cc1c(NC(=O)CCN2C(=O)c3ccccc3C2=O)oc(-c2ccccc2)c1-c1ccccc1	-7	-8	-2.6	-0.4%	-3	3.0
CC(=O)c1c(C(C)=O)c(C)n(-c2ccc(C(=O)O)cc2)c1C	5	0	-0.8	-0.2%	-4	-1.0
CNC(=O)CC1C(=O)N(c2ccc(F)cc2)C(=S)N1NC(=O)c1ccc(Cl)cc1 (stereo not drawn)	-1	-26	-3.1	0.9%	-1	-0.2

Ordered by value in CtBP-E1A inh (falling): 4 of the compounds above
smiles,CtBP-E1A inh
COc1ccccc1C1N=C(c2ccccc2C)NO1 (stereo not drawn),13
CN(C)c1ccc(P(=O)(OCc2ccccc2)C(O)c2ccncc2)cc1 (stereo not drawn),4
COc1ccccc1C1=NOC(COC(=O)c2ccc([N+](=O)[O-])cc2)C1 (stereo not drawn),2
FC(F)(F)c1ccc(Cl)c(NC(=S)NC2CC2)c1,-4

Other structures:
SMILES	CtBP-E1A inh	TRPML1 blocker	D2 ag	PINK1 expr mod	Six1-Eya2 blk	TRPML1 ag
COC(=O)c1ccc(Nc2nc(C)cc(=O)[nH]2)cc1	0	3	-2.9	1.6%	1	2.4
CCOc1ccc(-n2c(O)cc(=O)[nH]c2=O)cc1	-11	0	-2.6	1.3%	-8	1.1
COc1cccc(-c2nc(CS(=O)CC(=O)NCCc3ccc(C)cc3)c(C)o2)c1 (stereo not drawn)	-6	25	1.5	-0.7%	-2	-0.1
Cc1ccc(NC(=O)CN(C)C(=O)c2ccc(-n3cncn3)c([N+](=O)[O-])c2)cc1	5	1	1.6	-1.4%	-1	3.7
Cc1cccc(C(=O)NC2CC3CCCC(C2)N3C(=O)NC2CCCCC2)c1 (stereo not drawn)	-1	0	-3.4	0.3%	5	0.3
CSCC[C@H](NC(=O)c1cc2c([nH]c3ccccc32)c(-c2ccccc2)n1)C(=O)O	-12	-3	-2.7	0.4%	-9	-0.7
CC(C)Oc1ccc(C(=O)N2CCCCC2CCN2CCCCC2)cc1 (stereo not drawn)	·	11	·	0.4%	·	0.4
Cc1ccc(/C=C/C(=O)NCc2ccc3c(c2)OCO3)o1	-1	23	3.2	0.0%	-8	1.5
Cc1nc(-c2ccccc2)sc1C(=O)CSc1ccccc1	18	31	1.2	2.1%	49	2.8
C=CCn1cc(C(=O)NCCCN(CC)CC)c(=O)c2cc(S(=O)(=O)N3CCC(C)CC3)ccc21	-3	5	0.9	0.1%	-1	-0.4
O=C(OCCNc1nc(-c2ccccc2)nc2ccccc12)c1cccnc1	·	30	-6.3	-1.3%	-7	1.4
CCOc1ccc2nc(/N=C/c3nc(-c4ccc(Br)cc4)oc3O)sc2c1	-10	19	2.0	2.7%	1	11
O=C(COC(=O)c1ccc(S(=O)(=O)N2CCCCC2)cc1)Nc1ccccc1Cl	10	6	-8.4	9.3%	0	0.0
Clc1cccc(Cc2ccc(Cl)nn2)c1	16	5	-1.3	-1.4%	10	-0.7

Single values from the list.
For D2 ag, `Cc1ccc(S(=O)(=O)NNC(=O)c2cnn(-c3ccc(Cl)cc3)c2C(F)(F)F)cc1` is listed with -4.5
For Six1-Eya2 blk, `CC(=O)c1c(C(C)=O)c(C)n(-c2ccc(C(=O)O)cc2)c1C` is listed with -4

Assay outcomes: PubChem, National Center for Advancing Translational Sciences (NCATS)
